# Screening data from PubChem.
# 2A StopGo – lowers the luciferase signal of an FMDV 2A StopGo reporter; Potency, µM (highest dose often 57.9 µM), without a hit: at the top dose signal change, negative = less light; AID 1159524; actives 1.2% (n = 410,000); human cells with a luciferase reporter of 2A StopGo recoding; control for the full effect not named in the record; active = well fitted falling curve with a large enough effect; inconclusive = small, poorly fitted or top-dose-only effect; inactive = no such curve, though single readings can be large or run the other way; tested in HEK293T cells; also: nearly all actives have a fitted effect of over 45% in size; luciferase light after 4 h
# * hit, by the source's call; ? = inconclusive; & = joins results of further samples; [ ] = dose if it differs, or a comment. % is scaled to controls: 0 for no effect and ±100 for the full control effect; potency is read from the fitted curve at half-maximal effect.
SMILES,2A StopGo
CCc1cc(C(=O)NCC2Cc3cc(C)cc(-c4cc(C(C)=O)ccc4F)c3O2)n(C)n1 (stereo not drawn),-24%
Cc1nc2cc(NC(=O)[C@@H]3C[C@@H](Sc4ccccn4)CN3Cc3ccc(F)cc3F)ccc2s1,-5%
CCC1CN(Cc2cn[nH]c2-c2ccccc2)Cc2cc(OC)ccc2O1 (stereo not drawn),5%
C[C@H](CCC(=O)O)C1CC[C@H]2C3CC[C@@H]4C[C@H](O)CC[C@]4(C)C3C[C@H](O)[C@]12C (stereo partly drawn),-3%
CC(=O)c1ccc(F)c(-c2cc(C)cc3c2OC(CNC(=O)c2cnc4ccccn4c2=O)C3)c1 (stereo not drawn),16%
COc1ccc2c(c1)-c1nc(-n3ncc(C(=O)NC[C@@H]4CCCN5CCCC[C@H]45)c3C)ncc1CC2,-9%
Cc1c(C(=O)N(C)Cc2nccs2)sc2ncnc(NCC3CCCO3)c12 (stereo not drawn),-19%
COc1cc(=O)n2c(c1C(=O)NC(C)c1ccco1)CCN(Cc1ccc3nsnc3c1)CC2 (stereo not drawn),0%
Cc1ccccc1C(=O)N1CCc2c(cnc(C)c2CNC(=O)c2ccc3c(c2)OCO3)C1,-16%
COc1c(O)cccc1[C@@H](O)C1CCN(CCc2ccc(F)cc2)CC1,-8%
C[n+]1ccc(/C=C/c2ccc3ccccc3c2)cc1,-2%
C[C@@H]1CN(Cc2ccc3c(c2)CN(Cc2cccc4cccnc24)CCO3)C[C@H](C)O1,2%
Cc1cnc(SCc2ccccn2)nc1C1CCCN(C(=O)c2scc3c2CCCC3)C1 (stereo not drawn),16µM*
CC(C)NC(=O)c1cn(C2CCC(NC(=O)C(C)(C)C)CC2)nn1 (stereo not drawn),-2%
Cc1c(C(=O)N2CC3CCC2C3)sc2ncnc(NCCc3ccccn3)c12 (stereo not drawn),-9%
COc1ccc(C(=O)NCC2Cc3cc(F)cc(-c4cncnc4)c3O2)cc1 (stereo not drawn),16%
COC(=O)c1ccc(-c2cccc3c2OC(CNC(=O)/C=C/c2ccc(OC)c(OC)c2)C3)nc1 (stereo not drawn),-4%
CCC(=O)N[C@@H]1c2ccccc2C2(CCN(Cc3ccccn3)CC2)[C@H]1OC,-15%
CC1=C(/C=C/C(C)=C/C=C/C(C)=C\CO)C(C)(C)CCC1,-14%
COc1ccc(C(=O)NCc2nc(-c3cccc(NC(=O)c4ccc(C)s4)c3)oc2C)cc1,9%
O=C(NCCc1nnc2n1CCN(Cc1ccc(F)cc1)CC2)c1ccc(F)cc1,-10%
CC1CN(CC(=O)NCc2ccc3c(c2)OCO3)Cc2cc(Cl)ccc2O1 (stereo not drawn),10%
O=C1CC[C@@H](CN(Cc2cccnc2)C2CCN(c3ccc(NC(=O)c4cnccn4)cc3)CC2)N1,25%
Cc1c(C(=O)N2CCOc3ccc(Cl)cc3C2)sc2ncnc(NCCc3ccccn3)c12,-23%
O=C(NCc1ccncc1)c1cnn(-c2nccc(-c3cc4ccccc4o3)n2)c1C1CC1,-19%
O=C1NC(=O)C(Cc2ccccc2)(C2CCN(Cc3cccn3-c3cccnc3)CC2)N1 (stereo not drawn),6%
Cc1ccc(CNc2ncnc3sc(C(=O)N4CCCCC4c4cccnc4)c(C)c23)o1 (stereo not drawn),0%
CC[C@H](C)[C@H](NC(=O)[C@H](CCCN=C(N)N)NC(=O)[C@H](CCCN=C(N)N)NC(=O)[C@H](CC(C)C)NC(=O)[C@H](Cc1ccccc1)NC(=O)CNC(=O)CNC(=O)[C@@H](N)Cc1ccc(O)cc1)C(=O)N[C@@H](CCCN=C(N)N)C(=O)N1CCC[C@H]1C(=O)N[C@@H](CCCCN)C(=O)N[C@@H](CC(C)C)C(=O)N[C@@H](CCCCN)C(=O)O,2%[6.7 µM]
COc1ccccc1-c1ccnc(-n2ncc(C(=O)NCc3cccc(C)n3)c2C)n1,-8%
COc1cc(OC)c2nc(-c3cc4c(c(OC)c3)OCCN(C(=O)C(C)c3n[nH]c(=O)c5ccccc35)C4)cc(C)c2c1 (stereo not drawn),-9%
C#Cc1cccc(C(=O)NCc2nc(-c3ccccc3NC(C)=O)oc2C)c1,2%
COc1ccc(C(=O)O[C@H]2CC[C@@]3(C)C4CCC5[C@]6(O)C[C@H](O)[C@@]7(O)C(CN8C[C@@H](C)CC[C@H]8[C@@]7(C)O)[C@]6(O)C[C@@]53O[C@@]42O)cc1OC (stereo partly drawn),-3%[39.8 µM]
O=C(c1cccnc1)C1CCCN(Cc2ccc3c(c2)CN(C(=O)c2cccs2)CCO3)C1 (stereo not drawn),-5%
CC(NC(=O)C1CCOCC1)c1nnc2n1CCN(Cc1ccc3cccnc3c1)CC2 (stereo not drawn),-2%
Cc1cc(C)n(CC(=O)N2CCC(n3c(C(C)C)nc4cccnc43)CC2)n1,-1%
COC(=O)C1CCN(Cc2ccc3c(c2)CN(C(=O)C2Cc4ccccc4O2)CCO3)CC1 (stereo not drawn),-12%
CC(C)=CCCN1CCC(NC(=O)C(O)(c2ccccc2)C2CCCC2)CC1 (stereo not drawn),-22%
CCn1c(-c2ccccc2F)nc2cc(NC(C)=O)cc(C(=O)N3CCC[C@H]3C(=O)OC)c21,15%
Cc1ccccc1-c1cc2c(c(OC3CCOC3)c1)OCCN(C(=O)Cn1cccn1)C2 (stereo not drawn),2%
COCCC1CCCCN1Cc1nc(N2CCCCC2)c2cc(OC)c(OC)cc2n1 (stereo not drawn),-3%
OCCCNCc1cc2ccc(F)cc2nc1N1CCN(c2cccc(Cl)c2)CC1,0%
COC(=O)c1cc(CNC(=O)c2cccc(N(C)C)c2)cc(NC(=O)c2ccccc2Cl)c1,-3%
COc1cccc(CN2CCCC(c3nc(-c4ccncc4)ncc3-c3ccccc3C)C2)c1O (stereo not drawn),-12%
O=C1CC(c2ccccc2)CC2=C1C1(CCCC1)N=C(Nc1nc3ccccc3o1)N2 (stereo not drawn),-11%
COc1cccc(CCNc2ncnc3sc(C(=O)N4CCOCC4)c(C)c23)c1,-8%
Cc1cn2cc(CNC(=O)CN3Cc4ccccc4OC(c4ccccc4F)C3)nc2s1 (stereo not drawn),4%
COC(=O)C[C@H](NC(=O)[C@H](C)NC(=O)[C@@H](NC(=O)OCc1ccccc1)C(C)C)C(=O)CF,-11%
CC(=O)Nc1cc(C(=O)N2CCCC(C)C2)cc2ncn(CCc3ccccn3)c12 (stereo not drawn),-4%
COc1ccc(CC(N)C(=O)NC2C(O)[C@H](n3cnc4c(N(C)C)ncnc43)O[C@@H]2CO)cc1 (stereo partly drawn),?
COc1cc(=O)n2c(c1C(=O)NCc1ccco1)CCN(C(=O)c1c(F)ccc(F)c1F)CC2,13%
CC(=O)c1ccc(F)c(-c2cc(C)cc3c2OC(CNC(=O)Cc2ccc4c(c2)OCO4)C3)c1 (stereo not drawn),-8%
OC1(c2cccnc2)CCN(Cc2ccc3c(c2)CN(Cc2cccc(C(F)(F)F)c2)CCO3)CC1,?
CC1CN(CC(=O)NCC2(N3CCOCC3)CCCC2)Cc2cc(Cl)ccc2O1 (stereo not drawn),-4%
COc1ccc(CNC(=O)c2cnn(-c3nccc(-c4ccco4)n3)c2C)cc1OC,35%[activator]
O=C(NCc1nnc2n1CCN(C(=O)c1cccc(Cl)c1)CC2)C1CC1,-2%
COCc1c(C(=O)NC2CCCCCC2)cnn1-c1nccc(-c2cc(C)sc2C)n1,50%[activator]
Cc1cc(C)cc(C(=O)NCCn2cc(C(=O)N3CCSCC3)nn2)c1,-2%
COc1cc(=O)n2c(c1C(=O)N(C)Cc1cscn1)CCN(C(=O)c1ccc(C)cc1C)CC2,3%
COC(=O)c1cc(CNC(=O)c2cccc3ccccc23)cc(NC(=O)c2ccccc2OC)c1,8%
Cc1nc2ccc(C(=O)N3CCc4c(cnc(C)c4CNC(=O)/C=C/c4cccs4)C3)cc2nc1C,4%

# The results go on.
SMILES,2A StopGo
NC[C@H]1O[C@H](O[C@H]2[C@H](O)[C@@H](O[C@H]3O[C@H](CO)[C@@H](O)[C@H](N)[C@H]3O)[C@H](N)C[C@@H]2N)[C@H](N)[C@@H](O)[C@@H]1O,-2%&3%
CN(CCO)C(=O)c1cn(C2CCN(Cc3cccc4ccccc34)CC2)nn1,-14%
COc1ccc(O)c(CN2CCCN(c3nc(C)c4cc(C)c(C)cc4n3)CC2)c1,5%
COc1ccc(CN2CCOc3ccc(CN4CCC(Oc5cccnc5)CC4)cc3C2)cc1,-24%
Cc1cccc(CNC(=O)c2cnn(-c3ncc4c(n3)-c3ccccc3CC4)c2C2CC2)n1,4%
COc1cccc(C(=O)NC(C)c2nnc3n2CCN(CC=C(C)C)CC3)c1 (stereo not drawn),-5%
COc1ccccc1C1CN(CCNC(=O)c2sccc2Cl)Cc2ccccc2O1 (stereo not drawn),-6%
Cc1ncc2c(c1CNC(=O)CN1CCCC1)CCN(C(=O)c1ccc(F)cc1F)C2,1%
Cc1cc(C)cc(NC(=O)C2CC23CCN(Cc2ccc4ncccc4c2)CC3)c1 (stereo not drawn),-10%
CCNC(=O)c1cc(NC(=O)COC)cc2nc(-c3ccncc3)n(C)c12,-14%
Cc1cc(C)nc(S[C@H]2C[C@@H](C(=O)N3CCN(c4ccccc4F)CC3)N(Cc3ccccc3C(F)(F)F)C2)n1,4%
C=CCSc1nnc(C2CCCN(Cc3ccccc3O)C2)n1C (stereo not drawn),3%
O=C(NCC1(N2CCOCC2)CCCCC1)c1cnn(-c2nccc(-c3ccco3)n2)c1C1CC1,3%
COc1ccc2c(c1O)-c1cc(O)cc3c1[C@@H](C2)N(C)CC3,-14%
Cc1ccccc1Cc1nc2cccnc2n1C1CCN(C(=O)CC2NC(=O)c3ccccc32)CC1 (stereo not drawn),-24%
COc1cccc(-c2nc(-c3ccc(C(=O)O)cc3)no2)c1,-78%
CN1CC[C@@]2(C)c3cc(O)ccc3N(C)C2O1 (stereo partly drawn),-12%
COc1cc(=O)n2c(c1C(=O)NC(C)c1ccco1)CCN(C(=O)c1ccc(F)cc1Cl)CC2 (stereo not drawn),22%
Cc1cnc(SCc2ccccn2)nc1C1CCCN(C(=O)c2ccc3c(c2)OCO3)C1 (stereo not drawn),-19%
NC(C(=O)O)[C@H](O)C(=O)O (stereo partly drawn),1%
CCN1CCCC1CNC(=O)c1cnn(-c2nccc(-c3ccccc3OC)n2)c1-c1ccco1 (stereo not drawn),-6%
O=C(O)/C=C/CO,-13%&-2%
Cc1cnc(SCc2ccccn2)nc1C1CCCN(C(=O)c2coc3c2C(=O)CCC3)C1 (stereo not drawn),-7%
OCCN1CCN(Cc2ccc3c(c2)CN(Cc2cccc4ncccc24)CCO3)CC1,-15%
COc1cc(CN2CCOc3ccc(CN4CCC(O)(c5cccnc5)CC4)cc3C2)ccc1F,1%
Cc1cnc(-n2ncc(C(=O)NCCc3cccnc3)c2C)nc1-c1ccc(F)cc1,6%
CC(C)C(NS(C)(=O)=O)c1nnc2n1CCN(Cc1cccc3ncccc13)CC2 (stereo not drawn),-8%
COCc1ccc(CN2CCOc3ccc(C4=Cc5ccccc5C4)cc3C2)o1,45%[activator]
CSc1nnc(CCNC(=O)c2ccccc2C(F)(F)F)n1-c1ccc(F)cc1,-15%
COC(=O)CC(NC1CCN(c2nc(C)c3cc4c(cc3n2)CCC4)CC1)C(=O)OC (stereo not drawn),-2%

# Among those listed so far, five have a COOH group:
SMILES,2A StopGo
C[C@H](CCC(=O)O)C1CC[C@H]2C3CC[C@@H]4C[C@H](O)CC[C@]4(C)C3C[C@H](O)[C@]12C (stereo partly drawn),-3%
CC[C@H](C)[C@H](NC(=O)[C@H](CCCN=C(N)N)NC(=O)[C@H](CCCN=C(N)N)NC(=O)[C@H](CC(C)C)NC(=O)[C@H](Cc1ccccc1)NC(=O)CNC(=O)CNC(=O)[C@@H](N)Cc1ccc(O)cc1)C(=O)N[C@@H](CCCN=C(N)N)C(=O)N1CCC[C@H]1C(=O)N[C@@H](CCCCN)C(=O)N[C@@H](CC(C)C)C(=O)N[C@@H](CCCCN)C(=O)O,2%[6.7 µM]
COc1cccc(-c2nc(-c3ccc(C(=O)O)cc3)no2)c1,-78%
NC(C(=O)O)[C@H](O)C(=O)O (stereo partly drawn),1%
O=C(O)/C=C/CO,-13%&-2%

# Molecules shown so far that have an NH in an aromatic ring (two):
SMILES,2A StopGo
CCC1CN(Cc2cn[nH]c2-c2ccccc2)Cc2cc(OC)ccc2O1 (stereo not drawn),5%
COc1cc(OC)c2nc(-c3cc4c(c(OC)c3)OCCN(C(=O)C(C)c3n[nH]c(=O)c5ccccc35)C4)cc(C)c2c1 (stereo not drawn),-9%

# (continued)
SMILES,2A StopGo
OC1(c2cccnc2)CCN(Cc2ccc3c(c2)CN(Cc2cccc(F)c2F)CCO3)CC1,-13%
COc1ccc(C(=O)NCCc2nnc3n2CCN(CC2CC=CCC2)CC3)cc1 (stereo not drawn),-19%
CCn1c(-c2ccccc2F)nc2cc(C(=O)NCc3ccc(C)o3)cc(NC(C)=O)c21,7%
Cc1cc(C(=O)NCc2nnc3n2CCN(Cc2ccc4c(c2)Cc2ccccc2-4)CC3)c(C)o1,-28%
COc1cc(=O)n2c(c1C(=O)N(C)Cc1nonc1C)CCN(C(=O)c1ccc(C)cc1C)CC2,4%
Cc1ccc(C(=O)N2CCOc3ccc(CN4CCN(Cc5ccccn5)CC4)cc3C2)cc1,7%
COc1cc(=O)n2c(c1C(=O)N(C)Cc1nonc1C)CCN(Cc1ccc(F)cc1)CC2,-9%
COc1cc(=O)n2c(c1C(=O)NC(C)c1ccco1)CCN(C(=O)c1ccnc(Cl)c1)CC2 (stereo not drawn),-5%
Cc1occc1C(=O)Nc1cccc(-c2nc(CNC(=O)c3cc(-c4ccccc4)n[nH]3)c(C)o2)c1,-1%
CCN(CC)CCN(C)C(=O)c1ccc(-c2ccccc2)nc1N(C)C,-2%

# 3 compounds out of the list, sorted by molar mass, low to high.
SMILES,2A StopGo
COc1cc(=O)n2c(c1C(=O)N(C)Cc1nonc1C)CCN(Cc1ccc(F)cc1)CC2,-9%
COc1cc(=O)n2c(c1C(=O)N(C)Cc1nonc1C)CCN(C(=O)c1ccc(C)cc1C)CC2,4%
Cc1occc1C(=O)Nc1cccc(-c2nc(CNC(=O)c3cc(-c4ccccc4)n[nH]3)c(C)o2)c1,-1%

# An excerpt; rates above refer to the full screens.
